GLA inh pH 4.5 = qHTS Assay for Inhibitors of Human alpha-Galactosidase at pH 4.5 | purified enzyme, 4-MU-alpha-Gal fluorescence, pH 4.5 | Alpha-galactosidase A (Homo sapiens), P06280 | activity change, negative = inhibition, % at 105 µM | 230,000 tested, under 10 active; inconclusive = small, poorly fitted or top-dose-only inhibition, or a rising curve; inactive = flat fitted curve, though single readings scatter; no compound was filed as active;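 further: 0% = full activity with enzyme and -100% = basal without enzyme; dose as in the result columns while the protocol names 77 µM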
Target sequence (P06280 whole entry, looked up): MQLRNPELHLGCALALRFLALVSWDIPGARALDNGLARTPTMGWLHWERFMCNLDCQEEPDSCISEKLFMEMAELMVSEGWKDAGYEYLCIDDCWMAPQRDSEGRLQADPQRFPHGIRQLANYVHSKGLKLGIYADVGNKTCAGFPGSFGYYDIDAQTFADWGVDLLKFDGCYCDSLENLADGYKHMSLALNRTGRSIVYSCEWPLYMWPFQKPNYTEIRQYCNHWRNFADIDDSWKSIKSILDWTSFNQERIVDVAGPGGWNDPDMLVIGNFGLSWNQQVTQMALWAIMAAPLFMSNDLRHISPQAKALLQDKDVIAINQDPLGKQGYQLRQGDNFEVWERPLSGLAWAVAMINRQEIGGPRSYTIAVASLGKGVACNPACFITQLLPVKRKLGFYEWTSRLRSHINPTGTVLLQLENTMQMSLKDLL
Rango dissoc inh = qHTS Assay for Inhibitors of RanGTP induced Rango (Ran-regulated importin-beta cargo) - Importin beta complex dissociation; Biochemical FRET Rango-importin beta, RanGTP-induced dissociation; Potency, µM (highest dose often 46.1 µM), inactives show at the highest dose activity change, negative = inhibition; 340,000 tested, 0.071% active; AID 540253, 2011; active means falling FRET ratio curve, often poorly fitted, with flat reads before Ran was added; inconclusive means other falling curves, or compound fluorescence or quenching; inactive means flat or rising ratio curve;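 further: potency means the concentration at half of the fitted maximal effect; % of control where 0% means no effect; nearly all actives have a fitted effect of over 45% in size; -100% = wells without RanGTP and RCC1; the record marks most hits as doubtful in a second field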
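Two FRET readings bracket the reaction: one 5 min after compound meets Rango–importin beta, another 45 min after RanGTP-RCC1 (0.6 uM Ran, 0.2 uM RCC1, 2 mM GTP) is added. Only the second defines inhibition.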
Rango-impB inh = qHTS Assay for Inhibitors of Rango (Ran-regulated importin-beta cargo) - Importin beta complex formation; Importin subunit beta-1 (Homo sapiens), Q14974; Rango CFP/YFP FRET sensor + importin beta, 45 min; Potency, µM (titrated, usually from 92.2 µM), for the others: top-dose inhibition of complex formation; 340,000 tested, 0.031% active; AID 540263, 2011; active = rising FRET ratio curve, often small or poorly fitted; inconclusive = mostly compound fluorescence or quenching in the first reads; inactive = flat curves in all reads;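 further: potency means the concentration at half of the fitted maximal effect; 0% = DMSO wells and 100% = buffer wells lacking importin beta; nearly all actives have a fitted effect of over 15% in size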
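Inhibition scored from the CFP 486 nm/YFP 530 nm FRET ratio 45 min after adding 0.125 microM importin beta to 50 nM Rango biosensor preincubated 5 min with compound (room temperature, PBS with DTT, Tween-20, BSA). No-importin wells as positive control.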
miR-21 reporter = qHTS Assay for Modulators of miRNAs and/orActivators of miR-21. 340,000 tested, under 10 active. Potency, µM (doses to about 38.3 µM), without a hit: top-dose reporter change, positive = more light. HeLa miR-21 FLuc reporter, luciferase, 48 h; active = well fitted rising curve with a large enough effect; inconclusive = small, poorly fitted or top-dose-only effect; inactive = no such curve, though single readings can be large or run the other way;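 further: % of control where 0% means no effect; miR-21 action dims this reporter so a rising signal means less miR-21 action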
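HeLa cells endogenously expressing miR-21, stably carrying CMV-driven firefly luciferase with a downstream miR-21 binding site, 2000 cells/well. Titrations up to approximately 40 uM, 48 hours; luciferase luminescence read.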
Starred values were filed as active, the others as inactive; ? = inconclusive; . = no result given. Some of the compounds tested (hit frequency here may not be typical).

GLA inh pH 4.5	miR-21 reporter	Rango dissoc inh	Rango-impB inh	molecule
-1.9	10.9%	-1.6%	-5.1%	COc1cccc(/C=N/NC(=O)CNC(=O)CCc2ccccc2)c1O
.	.	18.1%	0.2%	CC(Sc1nncn1C)C(=O)Nc1ccc2ccccc2c1 (stereo unspecified)
6.1	-2.2%	0.1%	1.9%	COc1cc(NC(=O)c2cccs2)c(C(=O)OCC(=O)NCc2ccccc2)cc1OC
-9.5	1.6%	6.3%	1.9%	Cc1ccc(N2C(=O)[C@@H]3C(c4cccnc4)=NO[C@@H]3C2=O)cc1
.	-1.2%	-8.4%	4.6%	CCOc1ccccc1N(CC(=O)NCC1CCCO1)C(=O)CCC(=O)Nc1nccs1 (stereo unspecified)
.	.	12.0%	7.9%	O=[N+]([O-])c1ccc(Cl)cc1NCc1cccnc1
.	.	-7.4%	0.9%	COCCN(CC(=O)Nc1cccc(C)c1C)C(=O)Cc1sc(C)nc1-c1ccc(F)cc1
5.9	-10.9%	-6.8%	0.6%	CCCCn1nc2cc(C(=O)NCc3ccccc3)ccc2c1OCC
0.5	-0.1%	0.5%	-0.7%	O=C(OCC(=O)N(C1CCCCC1)C1CCCCC1)c1ccco1
6.5	1.1%	9.3%	4.1%	CCOC(=O)c1nnn2c1nc(N1CCCCC1)c1ccccc12
.	-3.3%	8.6%	?	Cc1ccc(CNC(=O)CCS(=O)(=O)c2ccc3c(c2)NC(=O)CO3)cc1
5.3	-1.2%	11.3%	2.0%	CCOC(=O)c1cc(-c2ccccc2)sc1NC(=O)C(C)OC(=O)c1ccncc1 (stereo unspecified)
2.1	-1.6%	-0.1%	-2.7%	Cc1ccc(-c2csc3nnc(SCC(=O)NCc4ccc5c(c4)OCO5)n23)cc1
-4.0	11.4%	-16.5%	?	COc1cc(N2CCCC2)c(OC)cc1C=O
.	-1.7%	-13.1%	10.3%	Cc1ccc(C)c(NC(=O)CN(C)C(=O)c2ccncc2)c1
.	.	41.4%	2.7%	NC1=NOC(=O)C1C1CCCCC1 (stereo unspecified)
-5.4	0.9%	0.6%	-0.9%	COc1cc2c(cc1OC)C1=NC(=O)CN1C(SCc1ccc(C)cc1)=N2
-17.4	-6.8%	1.9%	-0.9%	O=C1COc2ccc(C(=O)NCc3ccc4c(c3)OCO4)cc2N1
3.0	-45.6%	.	.	Cc1cc(C)nc(NC(=O)c2ccc3c(c2)OCO3)c1
3.5	12.9%	22.9%	-0.1%	NS(=O)(=O)c1cc(C(=O)NCCOc2ccccc2)c(Cl)cc1Cl
4.0	0.5%	-9.4%	0.8%	CC(C)CCn1nnnc1C(c1ccccc1F)N1CCC(C(N)=O)CC1 (stereo unspecified)
.	-0.2%	-0.7%	-3.3%	NC(=O)c1cc(S(=O)(=O)NCCc2ccc(Cl)cc2)cs1
.	-1.8%	-5.5%	2.1%	O=C(CCN1CCOCC1)NNC(=O)Nc1cccc(C(F)(F)F)c1
.	-10.9%	-6.7%	0.2%	O=c1oc2ccccc2n1Cc1cccc(F)c1
4.5	-10.0%	-1.6%	2.0%	CN(C)C(/C=C/Nc1ccc(Br)cc1)=C(C#N)C#N
-4.7	0.9%	-8.4%	0.3%	O=C1CCCN1c1ccc(S(=O)(=O)Oc2cccc(Cl)c2)cc1[N+](=O)[O-]
7.2	0.8%	0.0%	0.3%	CCN1CC(CN(C)Cc2nc(-c3cccs3)no2)CC1=O (stereo unspecified)
3.7	-1.1%	12.1%	2.6%	N#CCCN(Cc1ccccc1)C(=S)NC(=O)c1ccccc1
-2.6	-42.6%	-26.3%	?	Cc1ccc(/C=N/Nc2cccc3cccnc23)c(O)c1
-21.5	8.8%	-7.2%	-2.7%	COc1ccc(N2CCN(C(=O)Nc3ccc(S(=O)(=O)N(C)C)cc3)CC2)cc1

Structural class, the compounds so far containing a thiophene ring, fused or not (four)
GLA inh pH 4.5	miR-21 reporter	Rango dissoc inh	Rango-impB inh	molecule
6.1	-2.2%	0.1%	1.9%	COc1cc(NC(=O)c2cccs2)c(C(=O)OCC(=O)NCc2ccccc2)cc1OC
5.3	-1.2%	11.3%	2.0%	CCOC(=O)c1cc(-c2ccccc2)sc1NC(=O)C(C)OC(=O)c1ccncc1 (stereo unspecified)
.	-0.2%	-0.7%	-3.3%	NC(=O)c1cc(S(=O)(=O)NCCc2ccc(Cl)cc2)cs1
7.2	0.8%	0.0%	0.3%	CCN1CC(CN(C)Cc2nc(-c3cccs3)no2)CC1=O (stereo unspecified)

The list continues:
GLA inh pH 4.5	miR-21 reporter	Rango dissoc inh	Rango-impB inh	molecule
.	4.6%	-1.5%	0.1%	CCOc1ccc(NC(=O)CSc2nnc(-c3cc(C)[nH]n3)n2N)cc1
.	-22.3%	-7.2%	-0.3%	C=CCn1c(=O)c(C(=O)Nc2ccc(C)cc2)c(O)c2ccccc21
.	-6.2%	0.2%	-2.0%	COc1cc(/C=N\NC(=O)C(C)(C)O)ccc1OC/C=C/c1ccccc1
-3.1	-31.3%	-10.8%	0.0%	CC(C)c1ccc2c(c1)C(c1cccs1)=NNC(c1ccncc1)=N2
.	.	-8.8%	-1.0%	CC1(c2ccccc2Cl)NC(=O)N(CC(=O)N2c3ccccc3NC(=O)C2(C)C)C1=O (stereo unspecified)
.	4.0%	9.5%	0.5%	Cc1ccc(C)c(N(CC(=O)NC2CCCC2)C(=O)CCC(=O)Nc2cc(C)on2)c1
.	.	-11.0%	3.6%	Cc1cccc(C(=O)OCC(=O)N2CCCC2=O)c1O
.	.	-6.6%	-0.5%	Fc1ccc2cnc(-c3ccccc3F)cc2c1
.	-2.6%	12.4%	3.7%	COc1cccc(NC(=O)CCCn2nc(C)c3c(C)n(-c4ccccc4)nc3c2=O)c1
.	-0.1%	1.7%	0.2%	COc1ccc2oc(=O)cc(CN3CCN(Cc4ccc(OC)c(OC)c4OC)CC3)c2c1
2.3	13.4%	0.3%	7.6%	C=C(C)CN(CC)C(=O)COc1ccc(S(=O)(=O)Nc2ccc(OC)cc2)cc1
.	-8.3%	?	-2.9%	COc1cc(Cl)ccc1OCc1cc(C(=O)N2CCCCC2c2cccnc2)no1 (stereo unspecified)
-1.2	10.3%	3.0%	0.9%	CCn1c(CNC(C)=O)nnc1SCC(=O)c1ccc(Br)cc1
.	1.6%	1.8%	-3.2%	CCN(CC1CCCN(CCc2cccc(OC)c2)C1)C(=O)C=C(C)C (stereo unspecified)
.	-4.2%	8.3%	3.9%	CCCCc1nc2c(C)c(N)cnc2n1Cc1cccc([N+](=O)[O-])c1

3 of the compounds above, as labelled records.
Fc1ccc2cnc(-c3ccccc3F)cc2c1
  GLA inh pH 4.5: .
  miR-21 reporter: .
  Rango dissoc inh: -6.6%
  Rango-impB inh: -0.5%
CCOc1ccc(NC(=O)CSc2nnc(-c3cc(C)[nH]n3)n2N)cc1
  GLA inh pH 4.5: .
  miR-21 reporter: 4.6%
  Rango dissoc inh: -1.5%
  Rango-impB inh: 0.1%
COc1cccc(NC(=O)CCCn2nc(C)c3c(C)n(-c4ccccc4)nc3c2=O)c1
  GLA inh pH 4.5: .
  miR-21 reporter: -2.6%
  Rango dissoc inh: 12.4%
  Rango-impB inh: 3.7%

(continued)
GLA inh pH 4.5	miR-21 reporter	Rango dissoc inh	Rango-impB inh	molecule
4.6	23.0%	0.6%	-5.4%	O=C(NCc1cccc(Cl)c1)c1cc(COc2ccc3ncccc3c2)on1
-12.1	24.6%	30.7%	0.5%	C=CCN=C1NN=C(c2cc(C)n(CCOC)c2C)CS1
-7.9	-1.3%	15.3%	-2.6%	CCOC(=O)C1CCN(C(=O)c2ccc(Oc3cc(Cl)cc(Cl)c3)o2)CC1
.	-6.8%	16.2%	-0.8%	Cc1ccc(NC(=O)Cn2c([N+](=O)[O-])cnc2C)cc1Cl
4.5	-4.2%	15.1%	0.0%	CC1(O)N(CCC(=O)Nc2cccc(F)c2)C(=O)OC12CCCCC2 (stereo unspecified)
-11.3	0.2%	-0.2%	-1.4%	CCOc1ccccc1N1CCN(C2=C(NS(=O)(=O)c3cccs3)C(=O)c3ccccc3C2=O)CC1
6.5	-0.4%	0.8%	0.1%	O=C(O)CCCN=CC1=C(O)C(C(=O)c2ccccc2)CCC1=O (stereo unspecified)
-17.8	2.4%	14.5%	1.5%	CC(OCC(O)CN(C)CCOc1ccccc1)c1ccc(Cl)cc1 (stereo unspecified)
.	-55.8%	-3.0%	-0.6%	O=C(c1cc2c(ccc3ccccc32)o1)N1CCCCC1
5.4	-0.6%	-4.6%	0.5%	CCOc1ccc(NC(=O)CNC(=O)c2ccc(OC)cc2)cc1
0.1	-0.7%	-1.1%	2.1%	O=C(COC(=O)Cc1ccsc1)Nc1ccc(S(=O)(=O)N2CCOCC2)cc1
-2.0	-9.0%	-17.7%	3.1%	CCCc1cc(=O)n(-c2nc3ccccc3s2)[nH]1
-2.8	-18.0%	2.1%	-0.7%	N#Cc1cn(CCOc2ccc(F)cc2)c2ccccc12
.	-0.7%	17.6%	-1.9%	COc1ccc(NC(=O)C2CCCN(S(C)(=O)=O)C2)cc1Cl (stereo unspecified)
-20.5	-11.7%	8.3%	-1.1%	O=C(CCCN1Cc2ccccc2C1)c1ccc(F)cc1
7.6	-27.1%	-8.2%	0.4%	O=C(Nc1ccc2oc(-c3ccncc3)nc2c1)c1cccs1
.	-32.3%	-9.2%	-0.6%	Clc1ccccc1/C=N/Nc1cc(N2CCOCC2)ncn1
.	0.7%	-6.5%	-2.8%	Cn1c(CNC(=O)C(Cc2ccccc2)NC(=O)c2ccccc2F)cc(=O)n(C)c1=O (stereo unspecified)
.	.	6.6%	0.9%	COc1ccccc1N1CC(C(=O)OCc2nc(N)nc(Nc3ccccc3)n2)CC1=O (stereo unspecified)
-3.0	-8.0%	9.0%	?	Cc1ccc(CNC(=O)CCCN2C(=S)NC(C)(C)CC2C)cc1 (stereo unspecified)
-3.0	-1.2%	1.1%	2.3%	CCCN1C(=O)/C(=N\OCC(=O)Nc2ccc(C(C)C)cc2)c2ccccc21
.	2.6%	3.1%	2.5%	CN(C(=O)COc1ccc(Oc2ccccc2)cc1)C1CCS(=O)(=O)C1 (stereo unspecified)
-12.7	-4.0%	3.3%	1.0%	COc1ccccc1NS(=O)(=O)c1ccc(N/N=C/c2c(C)nn(-c3ccccc3)c2N2CCCC2)c([N+](=O)[O-])c1
6.6	2.7%	0.9%	-0.3%	CC1=C(C(=O)Nc2ccccc2)C(c2ccccn2)n2nc(CCCO)nc2N1 (stereo unspecified)
-5.8	-15.9%	14.1%	1.8%	COc1ccc(-c2nn(-c3ccccc3)cc2/C=C/C(=O)O)cc1[N+](=O)[O-]
.	.	-0.3%	-1.9%	COC(=O)c1cc(NC(=O)COC(=O)CCc2c[nH]c3ccccc23)cc(C(=O)OC)c1
.	-0.2%	-13.7%	-1.2%	CSc1ccc(S(=O)(=O)N2CCC(C(=O)NCCCn3ccnc3)CC2)cc1
4.0	3.7%	3.8%	-0.2%	O=C(NCc1ccco1)c1cccc(NC(=O)c2ccco2)c1
.	-2.5%	-13.7%	0.2%	CC(C)(C)n1nc2c(c1NC(=O)Cc1ccc(F)cc1)CS(=O)(=O)C2
.	.	-9.4%	-0.6%	COc1ccccc1C=NNc1ccc([N+](=O)[O-])cn1
.	-1.6%	-0.8%	?	CCOC(=O)N1CCN(C(=O)c2ccc3c(c2)NC(=O)/C(=C/c2ccccc2)S3)CC1
4.2	-0.3%	8.2%	-0.8%	Cc1cccc(C)c1NC(=O)NNC(=O)c1cc(C(C)(C)C)nn1Cc1ccccc1
.	.	-7.1%	1.3%	Cc1ccc2cccc(OCC(=O)N(C)CC(=O)Nc3ccc(F)cc3)c2n1
5.8	8.7%	-0.2%	-3.9%	Cc1cccc(/C=c2\s/c(=C\C(=O)C(C)(C)C)[nH]c2=O)c1
.	.	1.0%	-0.1%	O=C(OCc1ccccc1)c1ccc(NCc2cc(O)ccc2O)cc1
4.3	-1.4%	-12.3%	?	CCCC(c1nnnn1Cc1ccco1)N1CCC(C(N)=O)CC1 (stereo unspecified)

Compound activity deposited in PubChem by National Center for Advancing Translational Sciences (NCATS).
